Screens (PubChem)
Mtb H37Rv = Confirmatory growth inhibition assay against Mycobacterium tuberculosis H37Rv, potency (AID 1949); most inactive calls were filed without a number and no value below 0 was filed; inhibition, % at 10 µg/mL; hits with a dose series show IC50 in µg/mL; actives 1.6% (n = 100,000);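 active = confirmed in a dose series; inconclusive = about 50% or more but not retested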;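 also: bacteria grown 7 days with compound before Alamar blue readout; 0% = untreated bacteria and 100% = reference antibiotic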
* = called active by the depositor; i = inactive; ? = inconclusive.

Compound,Mtb H37Rv
Cc1ccc(CN2CCN(N=Cc3ccc(Cl)cc3)CC2)c(C)c1,5%
COc1ccc(NC(=O)NC(C)c2cn(C)nc2C)c(OC)c1 (stereo not drawn),i
COc1ccccc1N(C(F)F)S(=O)(=O)c1cccs1,i
Cc1ccc(NC(=O)CCCOc2ccc(Cl)cc2Cl)c(C)c1,i
Cc1ccc(N2CC(C(=O)NCCN3CCOCC3)CC2=O)cc1 (stereo not drawn),i
Cc1cc(=O)oc2cc(OCc3ccc4ccccc4c3)ccc12,5%
O=c1c(Br)c(N2CCN(S(=O)(=O)c3ccccc3)CC2)cnn1-c1ccccc1,i
Cc1cccc(C)c1NC(=O)Cn1c(-c2nonc2N)nc2ccccc21,0%
N#Cc1c(-c2ccccc2)nc(N2CCCCC2)[nH]c1=O,i
Cc1ccn(C(=O)COc2ccc(Br)cc2C)n1,i
COc1ccccc1CC(=O)N(CCC#N)CCC#N,i
COC(=O)c1cc(NC(=O)c2ccc(C(C)(C)C)cc2)ccc1Cl,22%
O=C(Nc1ccc2oc(-c3ccncc3)nc2c1)c1c(F)c(F)c(F)c(F)c1F,i
Cc1ccc(NC(=O)c2ccccc2OCC(=O)Nc2ccccc2C(F)(F)F)cc1Cl,i
Cc1c(OC(=O)c2ccco2)ccc2c(=O)c(-c3nc4ccccc4s3)c(C(F)(F)F)oc12,i
Cc1cc(C)cc(NC(=O)CN(c2ccccc2C)S(C)(=O)=O)c1,i
CNC(=S)Nc1ccn(Cc2ccc(Cl)cc2Cl)n1,0%
COc1ccc(OC)c(N(CC(=O)Nc2cccc(C(C)=O)c2)S(=O)(=O)c2ccc(C)cc2)c1,i
O=C(CC(c1ccccc1)c1cc(Br)ccc1O)NCc1ccco1 (stereo not drawn),0%
CCc1sc(NC(=O)Cc2cccs2)nc1-c1ccccc1,i
O=C(Nc1nncs1)c1ccc(C(=O)C(=O)c2ccccc2)cc1,1%
O=C(CSCc1ccc(Cl)c(Cl)c1)NNC(=S)Nc1ccc(F)cc1F,i
CCc1ccc(OCC(=O)Nc2nc(-c3ccc(Cl)cc3)cs2)cc1,i
CCC(C(=O)Nc1nc(C)c(C)s1)c1ccccc1 (stereo not drawn),6%
CC(C(=O)Nc1ccc(S(=O)(=O)Nc2nccs2)cc1)N1C(=O)c2ccccc2C1=O (stereo not drawn),i

Arranged by number of heavy atoms (low to high): 3 of the compounds above.
Compound,Mtb H37Rv
Cc1ccn(C(=O)COc2ccc(Br)cc2C)n1,i
CCC(C(=O)Nc1nc(C)c(C)s1)c1ccccc1 (stereo not drawn),6%
CCc1ccc(OCC(=O)Nc2nc(-c3ccc(Cl)cc3)cs2)cc1,i

The list goes on.
Compound,Mtb H37Rv
COC(=O)C(O)(c1c(C)nn(-c2ccccc2)c1N)C(F)(F)F (stereo not drawn),i
Cc1cccc(N(CC(=O)Nc2ccccc2C(=O)NC(C)C)S(C)(=O)=O)c1,i
CCc1ccc(-n2c(-c3ccc(F)cc3)n[nH]c2=S)cc1,i
S=C(NCC(c1ccccc1)c1ccccc1)Nc1ccccc1,i
O=C(Nc1ccccc1I)C(C(F)(F)F)C(F)(F)F,i
Cc1cc(C)c(NC(=O)COc2ccc(-c3ccccc3)cc2)c(Cl)c1,i
COc1cc(OC)c(C2Nc3ccccc3NC3=C2C(=O)CC(c2ccccc2Cl)C3)cc1OC (stereo not drawn),i
CCOC(=O)COc1ccccc1C1CC(c2cccs2)=NN1C(=O)c1ccco1 (stereo not drawn),i
CC(C)Cc1ccc(S(=O)(=O)Nc2ccccn2)cc1,i
CN(c1cccc(NC(=O)c2ccc(CN3CCOCC3)cc2)c1)S(C)(=O)=O,i
CCNC(=S)NC(c1ccccc1)c1ccc(OC)cc1 (stereo not drawn),i
Cc1cccc(CC2CC(=O)N(c3ccc(Cl)cc3)C2=O)c1 (stereo not drawn),i
COC(=O)c1c(-c2ccc(C)cc2)csc1NC(=O)c1cccc([N+](=O)[O-])c1,i
O=C(Nc1ccc(F)cc1F)N1CCN(c2ccccn2)CC1,i
CCc1ccc(OCC(=O)Nc2ccc(N3CCN(C(=O)c4ccccc4)CC3)cc2)cc1,i
CN(C(=O)Nc1ccc(I)cc1)c1ccccc1,2%
CCC(=O)N1CCNC(=O)C1CC(=O)OC (stereo not drawn),i
CCOC(=O)c1c(NC(=O)c2ccc(F)cc2)sc2c1CCC2,i
Clc1cccc(-c2ccc(-c3nn4c(-c5ccco5)nnc4s3)o2)c1Cl,i
COc1cc(C)nc(NS(=O)(=O)c2ccc(C)cc2)n1,1%
O=C(CCc1ccccc1)Nc1nnc(SCC(=O)NC2CCCCC2)s1,i
COc1ccc(OCC(=O)Nc2cc(-c3nn4c(C)nnc4s3)ccc2C)cc1,i
CCN1C(=O)c2cccc3c(NC(=O)c4ccc(Cl)cc4)ccc1c23,i
O=C(Nc1ccc2c(c1)OCCO2)c1ccc2c(c1)OCO2,i
CC12CCC(C(=O)Nc3cc(C(F)(F)F)ccc3Cl)(OC1=O)C2(C)C (stereo not drawn),i
Cc1cc(Cl)cc(Br)c1OCCNCC(C)O (stereo not drawn),i
COc1cc(C2C3=C(CCCC3=O)N(C)C3=C2C(=O)CCC3)ccc1OCc1cccc2ccccc12,i
Cc1cc(C)c(NC(=O)COc2ccc(Cl)cc2Cl)c(Cl)c1,19%
CNC(=O)CCc1nc(-c2ccc(Cl)cc2)no1,i
CCN1CCCC1CNC(=O)c1cc(OC)c(OC)c(OC)c1 (stereo not drawn),i
COc1ccc(OC)c(C2C3=C(Nc4c2c(=O)[nH]c(=O)n4C)c2ccccc2C3=O)c1 (stereo not drawn),i
CCC(C)NS(=O)(=O)c1ccc(Br)s1 (stereo not drawn),i
COc1cccc(-c2nn(-c3ccccc3)cc2C(=O)NCC(=O)O)c1,i
CCC(C)NC(=O)c1ccccc1NC(=O)C(C)Sc1ccc(C)cc1 (stereo not drawn),i
CCNC(=S)NNC(=O)Nc1ccccc1,i
CS(=O)(=O)N1CCC(C(=O)Nc2cc(C(F)(F)F)ccc2Cl)CC1,i
COC(=O)COc1ccc(S(=O)(=O)N2CCN(Cc3ccccc3)CC2)cc1,i
Cc1nc2cc(NC(=O)NCc3ccc4c(c3)OCO4)ccc2o1,i
CCOC(=O)c1ccc(NC(=O)NS(=O)(=O)c2ccc(C)cc2)cc1,1%
COc1ccc(S(=O)(=O)N(C)CC(=O)Nc2cc(C)ccc2C)cc1C,i
CCOCCCNC(=O)CN(Cc1ccc(Cl)cc1)S(C)(=O)=O,i
O=C(Cc1ccc(Cl)cc1)Nc1ccc(Cl)cc1C(F)(F)F,i
CCN1CCN(C(=O)C2CCN(S(=O)(=O)c3ccc(Cl)cc3)CC2)CC1,i
Cc1ccc(-c2csc(NC(=O)CSc3nnc(CNC(=O)c4ccccc4C)n3C)n2)cc1,i
O=C(Nc1ccccc1N1CCCC1)c1cccs1,i
O=C(NCC1CCCO1)C(F)(F)C(F)(F)C(=O)NCC1CCCO1 (stereo not drawn),i
COc1ccc(Cc2nnc(NC(=O)c3ccc(SC)cc3OC)s2)cc1OC,i
Cc1ccc(Oc2c(C(F)(F)F)oc3cc(OC(=O)c4cccc(F)c4)ccc3c2=O)cc1,i
O=C(NCc1cccc(Cl)c1)c1cccs1,2%
COc1ccc(Cl)cc1NC(=O)Nc1cc(C)on1,i

Some of the entries so far, as labelled records:
> CCOCCCNC(=O)CN(Cc1ccc(Cl)cc1)S(C)(=O)=O
  Mtb H37Rv = i
> O=C(Cc1ccc(Cl)cc1)Nc1ccc(Cl)cc1C(F)(F)F
  Mtb H37Rv = i
> CCN1CCN(C(=O)C2CCN(S(=O)(=O)c3ccc(Cl)cc3)CC2)CC1
  Mtb H37Rv = i
> Cc1ccc(-c2csc(NC(=O)CSc3nnc(CNC(=O)c4ccccc4C)n3C)n2)cc1
  Mtb H37Rv = i

The results go on:
Compound,Mtb H37Rv
Cc1ccc(-n2c(C)n[nH]c2=S)cc1C,2%
O=C(Nc1cc(C(F)(F)F)ccc1N1CCOCC1)c1cccc(OCc2ccccc2)c1,i
O=C(NCCNC(=O)NC1CCCCC1)NC1CCCCC1,i
COc1ccc(-c2cc(C(F)F)n3ncc(C(=O)N4CCCc5ccccc54)c3n2)cc1,i
CCc1ccc(NS(=O)(=O)c2cccs2)cc1,i
Cc1cc(NC(=S)NC(=O)c2ccccc2)c([N+](=O)[O-])cc1C,i
O=S(=O)(c1ccc(-c2ccc(S(=O)(=O)N3CCSCC3)cc2)cc1)N1CCSCC1,i
O=C(CSc1ncnc2scc(-c3ccccc3)c12)c1ccccc1,1%
Cc1ccc(S(=O)(=O)Nc2cc(C3CCC(=O)C3)c(NS(=O)(=O)c3ccc(C)cc3)c3ccccc23)cc1 (stereo not drawn),i
Cc1ccc(S(=O)(=O)N(CC(=O)O)C2CCCCC2)cc1,i
CC(C)CC(=O)NC(c1ccc(Cl)cc1Cl)c1ccc2cccnc2c1O (stereo not drawn),i
COc1cccc(CNc2nc3nc(C)c(Cl)c(C)n3n2)c1,i
C/C(=N\Nc1ccc([N+](=O)[O-])cc1)c1ccc(-n2nncc2C)cc1,i
COc1ccc(CCNC(=O)C(=O)c2c(C)[nH]c3ccccc23)cc1OC,i
COc1ccc(Cl)cc1C(=O)O/N=C(\N)c1ccccn1,20%
CCc1ccc(OCC(=O)NC2C3CC4CC(C3)CC2C4)c(Br)c1 (stereo not drawn),8%
Cc1cc(NC(=O)c2cc3ccccc3oc2=O)no1,?
c1ccc(-c2noc(CSc3nnc(Cc4cccs4)n3-c3ccccc3)n2)cc1,i
COc1ccc(S(=O)(=O)Nc2cc(C)ccc2C)cc1C,i
O=C(Nc1cccc(C(F)(F)F)c1)Nc1cccs1,i
COc1ccc2c(c1)C(C)=CC(C)(C)N2C(=O)CN1C(=O)CCC1=O,3%
O=C(COc1ccc(S(=O)(=O)NCc2ccccc2)cc1Cl)N1CCCCCC1,i
COc1ccccc1C(=O)N1CCC(N2CCOCC2)CC1,i
CN(C)C(=O)CSc1nc2ccc([N+](=O)[O-])cc2s1,i
Cc1ccc([N+](=O)[O-])cc1NS(C)(=O)=O,i
COc1c(C)cc(Br)cc1C(=O)N1CCN(c2ccc(C(F)(F)F)cc2[N+](=O)[O-])CC1,18%
CCOC(=O)c1ccc(NC(=S)Nc2ccsc2C(=O)OC)cc1,i
O=C(CSc1nnnn1-c1ccccc1)c1ccc(Oc2ccccc2)cc1,i
CN1CCc2nc(SCC(=O)OCc3ccccc3)c(C#N)c(-c3ccccc3)c2C1,?
CC(C)(C)c1ccc(OCCCCOc2ncnc3ccccc23)cc1,16%
CC(C)(Oc1ccc(Cl)cc1)C(=O)Nc1cc(C(F)(F)F)ccc1F,i
O=c1c2ccccc2nc(CNc2ccccc2)n1-c1ccccc1,i
CCc1cccc(CC)c1NC(=O)CN(Cc1ccc(Cl)cc1)S(=O)(=O)c1ccc(C)cc1,i
CCSc1nnc(NC(=O)c2ccc(OC)c(OC)c2)s1,i
O=C(Nc1ccc(CN2CCCCC2)cc1)c1ccc2c(c1)OCO2,i
COc1ccc(NC(=O)c2ccccc2Oc2ccccc2)cc1,?
NC(=O)C1(N2CCCCC2)CCN(Cc2ccc(F)cc2)CC1,i
O=S(=O)(Nc1ccc(N2CCOCC2)cc1)c1cccc2cccnc12,i
O=C(NCc1cccc2ccccc12)C12CC3CC(CC(C3)C1)C2,i
COc1ccc(Cl)cc1C(=O)NC(=S)Nc1cc(-c2nc3ccccc3[nH]2)ccc1C,i
O=S(=O)(NCCSc1ccccc1)c1ccc2c(c1)OCCO2,5%
CCOC(=O)c1ccc(COC(=O)c2cc(=O)[nH]c3ccccc23)o1,i
C/C(=N\N=C1\NC(=O)C(Cc2cccc(C(F)(F)F)c2)S1)c1ccc(F)cc1 (stereo not drawn),?
CCOc1ccc(NC(=O)C(CC(=O)O)Cc2ccc(Br)cc2)cc1 (stereo not drawn),i
CC(C)Cc1ccc(S(=O)(=O)NCC2CCCO2)cc1 (stereo not drawn),i
CCCCC(CC)C(=O)NCCc1ccc(S(N)(=O)=O)cc1 (stereo not drawn),i
O=C(NCc1ccncc1)C(=O)Nc1ccc([N+](=O)[O-])cc1,3%
S=C(NCCCN1CCCCC1)Nc1ccccc1,i
O=C1c2ccccc2-c2nnc(-c3cccnc3)cc21,i
CC(=O)c1ccc(NC(=S)NCc2ccco2)cc1,i

Continuation.
Compound,Mtb H37Rv
O=S1(=O)C=C(Sc2nnc(-c3ccccc3)o2)c2ccccc21,0.31µg/mL*
CCOC(=O)c1cnc2nc(Cc3ccccc3)[nH]n2c1=O,i
O=C(NCC1CCCO1)C1CCN(C(=O)c2ccc(-c3ccccc3)cc2)CC1 (stereo not drawn),i
Cc1ccc(OCC(=O)Nc2ccccc2OC(F)F)cc1C,i
Clc1cccc(Cl)c1COn1nnc2ccccc21,0%
COc1ccccc1OC(=O)COc1ccc2ccccc2c1Br,i
O=C(Cn1c(=O)oc2ccccc21)N1CCc2ccccc21,i
Cc1cc(NC(=O)Nc2ccccc2)n(-c2ccccc2)n1,1%

3 entries drawn at random from those above, as already listed:
Compound,Mtb H37Rv
Cc1ccc(OCC(=O)Nc2ccccc2OC(F)F)cc1C,i
Cc1cc(NC(=O)Nc2ccccc2)n(-c2ccccc2)n1,1%
O=C(Cn1c(=O)oc2ccccc21)N1CCc2ccccc21,i

A portion of the library; the hit share may differ from the screen's.
